# Marburg entry inh: qHTS for inhibitors of binding or entry into cells for Marburg Virus; Marburg virus pseudotyped entry inhibition, cell reporter; control for the full effect not named in the record; about a third of the inactives were read at about 46 µM; Potency, µM (series often up to 37.8 µM), without a hit: at the top dose activity change, negative = inhibition, usual class: inhibitors; 1.8% of 300,000 active; AID 540276, 2011; active = well fitted inhibition curve with a large enough effect; inconclusive = small, poorly fitted or top-dose-only effect, or effect the other way; inactive = flat fitted curve, though single readings scatter; tested in HEK293 cells; about a fifth of its hits are not listed in these tables; note: % is set by controls: 0 for no effect and ±100 for the full control effect; luciferase read-out
# RE007 growth inh: qHTS Assay for Inhibitors of the HIV-1 protein Vpr | S. pombe RE007 Vpr strain, BacTiter-Glo ATP luminescence, 24 h; control for the full effect not named in the record | Potency, µM (series often up to 92.2 µM), inactives show top-dose activity change, negative = less growth | 0.21% of 360,000 active | AID 651644, 2012; active = well fitted falling curve with a large enough effect; inconclusive = small, poorly fitted or top-dose-only effect; inactive = no such curve, though single readings can be large or run the other way;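 note: % is set by controls: 0 for no effect and ±100 for the full control effect; nearly all actives have a fitted effect of over 50% in size; the assay follows cell death caused by Vpr and the record does not say whether a fall means rescue or toxicity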
#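 Fission yeast RE007 carrying one integrated HIV-1 vpr copy, seeded at OD 0.01 in PMG+AL medium with 23 nL pinned compound. Grown 24 h at 30 degrees; viability read by BacTiter-Glo luminescence after 5 min.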
# SARS PLpro yeast: qHTS of Yeast-based Assay for SARS-CoV PLP; S. cerevisiae expressing SARS-CoV PLpro, growth rescue; control for the full effect not named in the record; Potency, µM (top dose mostly 32.9 µM), for inactives: at the top dose activity, positive = growth rescue; 0.19% of 330,000 active; active means well fitted rising curve with a large enough effect; inconclusive means small, poorly fitted or top-dose-only effect; inactive means no such curve, though single readings can be large or run the other way; note: 0% is about no effect; nearly all actives have a fitted effect of over 55% in size; growth read by luminescence after 48 h
# LASV entry inh: qHTS for Inhibitors of binding or entry into cells for Lassa Virus; Lassa virus pseudotype entry inhibition, cell reporter; control for the full effect not named in the record; Potency, µM (highest dose often 37.9 µM), for inactives: at the highest dose activity change, negative = inhibition, hits mostly inhibitors; 1.2% of 300,000 active; AID 540256, 2011; active means well fitted inhibition curve with a large enough effect; inconclusive means small, poorly fitted or top-dose-only effect, or effect the other way; inactive means flat fitted curve, though single readings scatter; tested in HEK293 cells; note: % is set by controls: 0 for no effect and ±100 for the full control effect; nearly all actives have a fitted effect of over 50% in size; luciferase read-out
# NS1 function inh: qHTS Assay for Inhibitors of Influenza NS1 Protein Function; 0.4% of 270,000 active; AID 2326, 2010; S. cerevisiae slowed by influenza A NS1, growth recovery by OD600; Potency, µM (top dose mostly 46.1 µM), inactives show at the highest dose activity, positive = more growth; active means well fitted rising curve with a large enough effect; inconclusive means small, poorly fitted or top-dose-only effect; inactive means no such curve, though single readings can be large or run the other way; note: nearly all actives have a fitted effect of over 50% in size
#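 In this qHTS, NS1 from influenza A is expressed in budding yeast, where it slows growth. Cells are switched from glucose to 2% galactose medium (pH 6.0, -URA), treated with compound, and growth recovery is read at OD600.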
# Cruzain inh noDet: qHTS Assay for Promiscuous and Specific Inhibitors of Cruzain (without detergent) | purified cruzain, Z-FR-AMC fluorescence, no detergent | Potency, µM, inactives show max response, negative = inhibition, actives largely listed as inhibitors | 2.3% of 200,000 active;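 note: plate controls were enzyme without inhibitor for no effect and buffer without enzyme for full effect; nearly all actives have a fitted effect of over 40% in size; top concentration of the series not given in the record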
# Target sequence (P25779 123-467 limits assumed): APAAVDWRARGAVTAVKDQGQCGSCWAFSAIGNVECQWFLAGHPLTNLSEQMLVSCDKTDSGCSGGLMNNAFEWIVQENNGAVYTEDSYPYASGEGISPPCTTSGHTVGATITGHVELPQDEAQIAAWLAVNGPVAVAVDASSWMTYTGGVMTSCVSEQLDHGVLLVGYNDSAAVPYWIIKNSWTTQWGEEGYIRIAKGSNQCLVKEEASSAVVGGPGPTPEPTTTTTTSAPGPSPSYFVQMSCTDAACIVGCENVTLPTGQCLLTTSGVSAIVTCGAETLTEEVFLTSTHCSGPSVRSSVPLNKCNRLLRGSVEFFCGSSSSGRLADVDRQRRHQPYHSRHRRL
#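 Purified cruzain at 1.5 nM, pre-incubated 15 min with compound at room temperature in 100 mM sodium acetate pH 5.5, 5 mM DTT, 0.00005% Triton X-100. Reaction started with 2 uM Z-FR-AMC; AMC fluorescence increase over 60 s gives rate.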
# 2A StopGo: High Throughput Screening for Foot and Mouth Disease Virus Antivirals; human cells with a luciferase reporter of 2A StopGo recoding; control for the full effect not named in the record; Potency, µM (top dose mostly 57.9 µM), without a hit: at the highest dose signal change, negative = less light; 1.2% of 410,000 active; active = well fitted falling curve with a large enough effect; inconclusive = small, poorly fitted or top-dose-only effect; inactive = no such curve, though single readings can be large or run the other way; tested in HEK293T cells; note: % is set by controls: 0 for no effect and ±100 for the full control effect; nearly all actives have a fitted effect of over 45% in size; luciferase light after 4 h
# Cruzain inh Det: qHTS Assay for Promiscuous and Specific Inhibitors of Cruzain (with detergent). Cruzipain (Trypanosoma cruzi), P25779. Potency, µM, for inactives: max response, negative = inhibition, most hits filed as inhibitors. 0.43% of 200,000 active. purified cruzain, Z-FR-AMC fluorescence, 0.01% Triton;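 note: plate controls were neutral wells for no effect and buffer without enzyme for full effect; nearly all actives have a fitted effect of over 40% in size; top concentration of the series not given in the record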
#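 In this qHTS format, compounds are incubated with 1.5 nM cruzain for 15 min at room temperature before 2 uM Z-FR-AMC is added. Release of AMC is followed at 360/450 nm, and progress is taken as the 60 s fluorescence difference.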
# * hit, by the source's call; ? = inconclusive; . = no result given; & = joins results of further samples; [ ] = dose if it differs, or a comment. Unless noted, calls come from the whole dose curve; as a rule, active = well fitted curve in the direction sought with a large enough effect; inconclusive = small, poorly fitted or top-dose-only effect, or another doubt; inactive = no such curve, though single readings can be large; an effect the other way counts as inactive or inconclusive. Potency is the fitted concentration of half-maximal effect.
SMILES,Marburg entry inh,RE007 growth inh,SARS PLpro yeast,LASV entry inh,NS1 function inh,Cruzain inh noDet,2A StopGo,Cruzain inh Det
O=C(CCCCn1c(=O)[nH]c2ccccc2c1=O)NC1CCN(Cc2ccccc2)CC1,-35%,11%,-1%,-1%,17%,7%,-12%,1.9%
O=C(c1ccc(F)cc1)N1CCCC(C(=O)N2CCc3ccccc3C2)C1 (stereo not given),.,5%,-1%,.,-3%,.,-17%,.
C#Cc1ccc(CN2CCC(C(=O)Nc3ccc(Oc4ccccc4)nc3)CC2)cc1,.,-2%,18%,.,-4%,.,?,.
Cc1ccc(NS(=O)(=O)c2ccc(C)c(C(=O)N3CCOCC3)c2)cc1,17%,-8%,-2%,3%,26%,.,27%,.
CCOC(=O)c1ccc(CN(Cc2ccc(F)cc2)S(=O)(=O)c2cc(C(=O)Nc3cccc(C(F)(F)F)c3)ccc2F)cc1,.,.,.,4%[46.1 µM],.,?,-2%,1.2%
CCOc1cc(/C=C\c2nc(O)c([N+](=O)[O-])c(=O)[nH]2)ccc1OC(C)CC (stereo not given),.,5%,1%,.,3%,.,-3%,.
CCn1cc(CN(C)C(=O)/C=C/c2ccc([N+](=O)[O-])cc2)c(C)n1,-2%,12%,-8%,0%,-6%,7%,-25%,-2.5%
O=C(c1ccccc1)c1c(O)cc(-c2ccccc2)oc1=O,-13%,14%,-13%,2%,-20%,-3%,8%,-4.9%
O=C(CSc1nnc(-c2ccc(Cl)s2)o1)N1CCCc2ccccc21,?,-6%,-6%,1%,-8%,2%,-13%,-9.9%
CC1CCCCC1NC(=O)C1CCN(S(=O)(=O)c2ccc(-n3cnnn3)cc2)CC1 (stereo not given),?,5%,8%,-1%,6%,-8%,3%,-2.9%
COc1ccc(C2C(C(C)=O)=C(O)C(=O)N2CCc2c[nH]c3ccccc23)cc1 (stereo not given),.,7%,0%,.,11%,.,-10%,.
O=c1[nH]cccc1-c1nc2ccccc2[nH]1,17%[46.1 µM],-7%,-1%,?,2%,.,30%[activator],.
CC(C)Nc1nc2c(S(=O)(=O)c3cccc(Cl)c3)nnn2c2ccsc12,.,.,.,2%[46.1 µM],.,9%,-19%,-0.3%
CCOc1cc(N2CCOCC2)c(OCC)cc1NC(=O)c1cc(S(=O)(=O)N2CCOCC2)ccc1C,0%,12%,-1%,-13%,.,.,-26%,.
CCOc1cc(NC(=O)c2cccs2)c(OCC)cc1NC(=O)c1cccnc1,.,-8%,1%,.,-1%,.,-13%,.
Clc1cccc(N2CCN(Cc3ccc(Br)o3)CC2)c1,.,-6%,-9%,.,-27%,.,-18%,.
O=C(N/N=C/c1cc(Br)cs1)c1ccccc1[N+](=O)[O-],?,-5%,-25%,-2%,-8%,4%,-3%,-8.0%
COc1ccc(C2Nc3ccccc3C(=O)N2Cc2ccccc2)cc1 (stereo not given),.,2%,1%,.,7%,.,-19%,.
Cc1cccc(C)c1NC(=O)CNC(=O)c1c(C)nn(-c2ccccc2)c1Cl,-3%,5%,-5%,-25%,.,.,13%,.
CCOc1ccc(CCNC(=O)COC(=O)C2CCN(S(=O)(=O)c3ccccc3)CC2)cc1OCC,3%,-13%,.,-2%,.,.,-24%,.
CC(C)Cn1c(SCC(=O)NCc2ccco2)nnc1-c1ccncc1,1%[46.1 µM],6%,0%,1%,-1%,.,3%,.
COc1cccc(CN(C)C(=O)CNC(=O)c2cccs2)c1OC,-24%,0%,1%,?,.,.,12%,.
CC1(C)CC(=O)C([N+](=O)[O-])=C(NCCCC(=O)O)C1,14%,4%,-14%,4%,-2%,-3%,-20%,-4.7%
O=C(c1cc2c(=O)oc3ccccc3c2s1)N1CCN(c2cccc(Cl)c2)CC1,0%[46.1 µM],.,.,-17%[46.1 µM],.,-6%,-7%,-0.2%
CCCCNCCOc1ccccc1-c1ccccc1,?,10%,-5%,?,-7%,-8%,-9%,-3.0%
Cc1ccc(C)c(NC(=S)NC(=O)c2cncc(Br)c2)c1,?,.,.,3%,.,.,-10%,.
O=c1c(-c2ccco2)[n+]([O-])c2ccccc2n1OCc1ccccn1,29%&1%,-13%,-4%,1%,4%,-3%,4%,-11%
Cc1cccc(N2CCN(CC3CCCCC3)CC2)c1C,.,-25%,5%,.,-27%,.,?,.
CC1=NN(S(=O)(=O)c2ccc(F)cc2)C(=O)c2ccccc2O1,4%,14%,-1%,-1%,-21%,-11%,-10%,1.6%
C=CCn1c(-c2cccnc2Cl)nc2ccccc21,?,-5%,3%,-6%,.,.,3%,.
C#C[C@@]1(O)CCC2C3CCC4=C/C(=N/OCC(=O)NC(C(=O)O)C(C)O)CC[C@]4(C)C3CC[C@@]21C (stereo not given in full),20%,3%,-2%,?,4%,.,5%,.
O=C(COc1ccccc1Cl)N1CCCCCCC1,0%,-3%,1%,-5%,6%,.,-3%,.
Cc1csc(NC(=O)CSC2=NS(=O)(=O)c3ccccc3N2)n1,?,2%,2%,0%,.,.,3%,.
CC(C)CC(=O)NCCNC(=O)c1cc(OCC(F)(F)F)ccc1OCC(F)(F)F,0%,31%,4%,-3%,-2%,3%,-14%,0.1%
Cn1c(-c2cccc([N+](=O)[O-])c2)cnc1NCc1cccc([N+](=O)[O-])c1,-50%,-9%,1%,-18%,0%,.,-20%,.
Cc1cccc(CC2CC(=O)N(c3ccc(C)cc3Br)C2=O)c1 (stereo not given),.,0%,-1%,.,8%,.,-4%,.
CC(=O)N1CCN(c2ccccc2NC(=O)c2ccc(C#N)cc2F)CC1,-6%,-5%,1%,15%,-5%,.,-23%,.
O=C(O)CCC(=O)N1CCN(S(=O)(=O)c2cccs2)CC1,7%,-13%,1%,0%,-7%,.,-8%,.
CCN(Cc1ccccc1)S(=O)(=O)c1c(C)[nH]c(C)c1C(=O)N1CCCC1,.,19%,0%,.,-3%,.,1%,.
CCN(c1ccccc1)S(=O)(=O)c1cc(Br)cc2c1N(C(=O)C1CC1)CC2,4%[46.1 µM],.,.,22%[46.1 µM],.,-8%,-2%,-5.0%

# Results in Cruzain inh noDet, RE007 growth inh and LASV entry inh, for 2 of the compounds above:
canonical_smiles,Cruzain inh noDet,RE007 growth inh,LASV entry inh
Cn1c(-c2cccc([N+](=O)[O-])c2)cnc1NCc1cccc([N+](=O)[O-])c1,.,-9%,-18%
C#C[C@@]1(O)CCC2C3CCC4=C/C(=N/OCC(=O)NC(C(=O)O)C(C)O)CC[C@]4(C)C3CC[C@@]21C (stereo not given in full),.,3%,?

# (more compounds)
SMILES,Marburg entry inh,RE007 growth inh,SARS PLpro yeast,LASV entry inh,NS1 function inh,Cruzain inh noDet,2A StopGo,Cruzain inh Det
CC(C)OCCCNC(=O)CN1CCN(Cc2ccccc2Cl)C1=O,-23%,-22%,-4%,12%,-4%,4%,-3%,7.5%
O=C(Nc1nc2ccccc2[nH]1)c1cccc([N+](=O)[O-])c1,?,6%,1%,13%[46.1 µM],0%,.,10%,.
CCOC(=O)c1ccc(NC(=O)CSc2nnc(CNC(=O)c3ccco3)o2)cc1,1%[46.1 µM],-7%,2%,23%[46.1 µM],-11%,.,-17%,.
O=S(=O)(Nc1ccc(S(=O)(=O)Nc2ncccn2)cc1)c1ccccc1,0%[46.1 µM],-8%,-2%,.,2%,.,6%,.
Cc1ccccc1C(=O)c1cccn1CC(=O)NCCCN1CC(C)CC(C)C1 (stereo not given),?,0%,-4%,16%[46.1 µM],-7%,.,3%,.
Cc1nc2nc(NC(=O)c3ccc(Cl)cc3)[nH]n2c(=O)c1Cc1ccccc1,6%[46.1 µM],.,.,2%[46.1 µM],.,9%,-17%,3.5%
COc1ccccc1NC(=O)Nc1nc(CC(=O)Nc2ccc(OC)c(OC)c2)cs1,21%,2%,2%,11%,.,.,-8%,.
O=C(Nc1nc(-c2ccccc2)c(C(=O)c2ccccc2)s1)c1ccc(S(=O)(=O)N2CCCC2)cc1,?,-5%,1%,-8%,8%,25µM*,?,-2.4%
CN1C2CCC1CC(NC(=O)c1cccc(C(F)(F)F)c1)C2 (stereo not given),.,-2%,0%,.,3%,.,-14%,.
O=C(CSc1ccncc1)Nc1ccc2ccccc2c1,-2%[46.1 µM],-2%,-4%,-2%,.,.,-3%,.
CCCCNC(=O)CN1C(=O)NC(Cc2ccccc2)(Cc2ccccc2)C1=O,-1%[46.1 µM],13%,3%,11%[46.1 µM],-4%,.,20%,.
Cc1[nH]c(=O)[nH]c(=O)c1/C=C/C(=O)O,.,9%,2%,.,4%,.,-5%,.
CC1(C)CCC(=O)C=C1Nc1ccc(F)c(Cl)c1,.,7%,-2%,.,13%,.,-1%,.
CCN(Cc1ccccc1)C(=O)Cn1c(=O)n(-c2ccc(C)c(C)c2)c(=O)c2c(C)c(C)sc21,-30%[46.1 µM],.,.,-18%[46.1 µM],.,-4%,-15%,-4.8%
Cn1c(/C=C/c2cccc(Br)c2)nc2ccccc2c1=O,10µM*,4%,-7%,?,-43%,.,9%,.
CCCNC(=O)COC(=O)c1c2c(nc3ccccc13)CCC2,2%[46.1 µM],6%,-5%,-7%[46.1 µM],4%,.,7%,.
Cc1ccc(C)c(OCC(=O)Nc2ccc(S(=O)(=O)Nc3ncccn3)cc2)c1,-5%,14%,2%,-9%,12%,.,-13%,.

# Compounds listed so far containing a furan ring, fused or not, in the order listed:
SMILES,Marburg entry inh,RE007 growth inh,SARS PLpro yeast,LASV entry inh,NS1 function inh,Cruzain inh noDet,2A StopGo,Cruzain inh Det
Clc1cccc(N2CCN(Cc3ccc(Br)o3)CC2)c1,.,-6%,-9%,.,-27%,.,-18%,.
CC(C)Cn1c(SCC(=O)NCc2ccco2)nnc1-c1ccncc1,1%[46.1 µM],6%,0%,1%,-1%,.,3%,.
O=c1c(-c2ccco2)[n+]([O-])c2ccccc2n1OCc1ccccn1,29%&1%,-13%,-4%,1%,4%,-3%,4%,-11%
CCOC(=O)c1ccc(NC(=O)CSc2nnc(CNC(=O)c3ccco3)o2)cc1,1%[46.1 µM],-7%,2%,23%[46.1 µM],-11%,.,-17%,.

# The order is random (roughly 4.7% active in at least one column).
